# Source: PubChem (National Center for Advancing Translational Sciences (NCATS))
# NS1 inh – blocks influenza NS1 protein function | S. cerevisiae slowed by influenza A NS1, growth recovery by OD600 | Potency, µM (top dose mostly 46.1 µM), for inactives: top-dose activity, positive = more growth | 270,000 tested, 0.4% active; active means well fitted rising curve with a large enough effect; inconclusive means small, poorly fitted or top-dose-only effect; inactive means no such curve, though single readings can be large or run the other way; note: nearly all actives have a fitted effect of over 50% in size
#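 Read-out: OD600 growth recovery of NS1-expressing budding yeast. Cells grown overnight at 30C in -URA glucose medium, washed, resuspended and diluted 1:100 in 2% galactose assay medium, pH 6.0. Same strain lacking NS1 served as positive control.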
# Cruzain noTriton – blocks cruzain activity in detergent-free assay. purified cruzain, Z-FR-AMC fluorescence, no detergent. Potency, µM, inactives show max response, negative = inhibition, most hits filed as inhibitors. 200,000 tested, 2.3% active;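 note: plate controls were enzyme without inhibitor for no effect and buffer without enzyme for full effect; nearly all actives have a fitted effect of over 40% in size; top concentration of the series not given in the record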
# Target sequence (P25779 123-467 limits assumed): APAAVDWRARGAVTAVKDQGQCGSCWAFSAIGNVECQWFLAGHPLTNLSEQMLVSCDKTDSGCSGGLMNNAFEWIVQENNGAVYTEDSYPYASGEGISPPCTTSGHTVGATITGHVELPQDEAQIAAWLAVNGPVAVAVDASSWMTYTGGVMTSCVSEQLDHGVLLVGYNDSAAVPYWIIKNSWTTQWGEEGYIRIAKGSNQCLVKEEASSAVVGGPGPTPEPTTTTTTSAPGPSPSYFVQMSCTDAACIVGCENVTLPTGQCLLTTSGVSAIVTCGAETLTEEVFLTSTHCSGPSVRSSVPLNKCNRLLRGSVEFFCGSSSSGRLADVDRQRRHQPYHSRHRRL
#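 Detergent-free condition (0.00005% Triton X-100) in acetate buffer pH 5.5 with DTT. 1.5 nM enzyme and compound were pre-mixed 15 min, then 2 uM Z-FR-AMC substrate added; reaction progress from fluorescence change between first and third reads (60 s).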
# StopGo reporter – lowers the luciferase signal of an FMDV 2A StopGo reporter; human cells with a luciferase reporter of 2A StopGo recoding; control for the full effect not named in the record; Potency, µM (series often up to 57.9 µM), for inactives: at the top dose signal change, negative = less light; 410,000 tested, 1.2% active; AID 1159524; active = well fitted falling curve with a large enough effect; inconclusive = small, poorly fitted or top-dose-only effect; inactive = no such curve, though single readings can be large or run the other way; tested in HEK293T cells; note: % is set by controls: 0 for no effect and ±100 for the full control effect; nearly all actives have a fitted effect of over 45% in size; luciferase light after 4 h
# Lassa entry inh – Lassa virus entry inhibition; Lassa virus pseudotype entry inhibition, cell reporter; control for the full effect not named in the record; Potency, µM (top dose mostly 37.9 µM), for inactives: top-dose activity change, negative = inhibition, most hits filed as inhibitors; 300,000 tested, 1.2% active; active means well fitted inhibition curve with a large enough effect; inconclusive means small, poorly fitted or top-dose-only effect, or effect the other way; inactive means flat fitted curve, though single readings scatter; tested in HEK293 cells; note: % is set by controls: 0 for no effect and ±100 for the full control effect; nearly all actives have a fitted effect of over 50% in size; luciferase read-out
# SARS PLP yeast – blocks SARS-CoV papain-like protease in a yeast assay | S. cerevisiae expressing SARS-CoV PLpro, growth rescue; control for the full effect not named in the record | Potency, µM (titrated, usually from 32.9 µM), for the others: at the top dose activity, positive = growth rescue | 330,000 tested, 0.19% active; active means well fitted rising curve with a large enough effect; inconclusive means small, poorly fitted or top-dose-only effect; inactive means no such curve, though single readings can be large or run the other way; note: 0% is about no effect; nearly all actives have a fitted effect of over 55% in size; growth read by luminescence after 48 h
# Cruzain Triton – inhibitors of Trypanosoma cruzi cruzain with detergent; purified cruzain, Z-FR-AMC fluorescence, 0.01% Triton; 200,000 tested, 0.43% active; P25779; Potency, µM, without a hit: max response, negative = inhibition, usual class: inhibitors;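 note: plate controls were neutral wells for no effect and buffer without enzyme for full effect; nearly all actives have a fitted effect of over 40% in size; top concentration of the series not given in the record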
#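 Sodium acetate buffer (100 mM, pH 5.5) containing 5 mM DTT and 0.01% Triton X-100 hosted 1.5 nM cruzain and test compound for 15 min at room temperature. Cleavage of 2 uM Z-FR-AMC was then tracked by fluorescence.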
# MARV entry inh – inhibitors of Marburg virus binding or cell entry; Marburg virus pseudotyped entry inhibition, cell reporter; control for the full effect not named in the record; about a third of the inactives were read at about 46 µM; Potency, µM (doses to about 37.8 µM), without a hit: top-dose activity change, negative = inhibition, most hits filed as inhibitors; 300,000 tested, 1.8% active; active = well fitted inhibition curve with a large enough effect; inconclusive = small, poorly fitted or top-dose-only effect, or effect the other way; inactive = flat fitted curve, though single readings scatter; tested in HEK293 cells; about a fifth of its hits are not listed in these tables; note: % is set by controls: 0 for no effect and ±100 for the full control effect; luciferase read-out
# RE007 growth inh – less growth of the S. pombe RE007 Vpr strain; S. pombe RE007 Vpr strain, BacTiter-Glo ATP luminescence, 24 h; control for the full effect not named in the record; Potency, µM (doses to about 92.2 µM), for inactives: top-dose activity change, negative = less growth; 360,000 tested, 0.21% active; AID 651644; active = well fitted falling curve with a large enough effect; inconclusive = small, poorly fitted or top-dose-only effect; inactive = no such curve, though single readings can be large or run the other way;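 note: % is set by controls: 0 for no effect and ±100 for the full control effect; nearly all actives have a fitted effect of over 50% in size; the assay follows cell death caused by Vpr and the record does not say whether a fall means rescue or toxicity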
#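 Fission yeast strain RE007, carrying one chromosomally integrated HIV-1 vpr copy, was seeded at OD 0.01 in PMG+AL medium with 23 nL pinned compound. After 24 h at 30 °C and 99% humidity, viability was read by BacTiter-Glo luminescence.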
# Numbers without * were called inactive; ? = inconclusive; . = not tested or not shown; [ ] = remark or other dose. Unless noted, calls come from the whole dose curve; as a rule, active = well fitted curve in the direction sought with a large enough effect; inconclusive = small, poorly fitted or top-dose-only effect, or another doubt; inactive = no such curve, though single readings can be large; an effect the other way counts as inactive or inconclusive. Potency is the fitted concentration of half-maximal effect.
# The first six records (preview)
SMILES,NS1 inh,Cruzain noTriton,StopGo reporter,Lassa entry inh,SARS PLP yeast,Cruzain Triton,MARV entry inh,RE007 growth inh
CCc1ccccc1NC(=O)c1cnc2sc(N3CCCC3)nn2c1=O,.,-8%,0%,30%[46.1 µM],.,7.9%,.,.
COc1ccc(/C=N/Nc2ccccn2)cc1OC,0%,.,13%,-2%[46.1 µM],0%,.,?,-13%
COc1ccc(-c2cnc(NCc3cc4c(cc3[N+](=O)[O-])OCO4)n2C)cc1,6%,4%,4%,16%,1%,-2.9%,?,0%
Cc1nc(-c2ccccc2)[nH]c(=O)c1Oc1ccc(Cl)cc1Cl,0%,.,?,.,0%,.,.,1%
CCN(CC)C(=O)c1sc(NC(=O)c2cccs2)c(C#N)c1C,-64%,.,23%,2%,-7%,.,-10%,-12%
CC(=NCC1CCCO1)c1c(O)n(-c2ccc(Cl)cc2)c(=O)[nH]c1=O (stereo not given),-4%,9%,-18%,?,-2%,2.8%,3%,-15%

# Main list (from the top)
SMILES,NS1 inh,Cruzain noTriton,StopGo reporter,Lassa entry inh,SARS PLP yeast,Cruzain Triton,MARV entry inh,RE007 growth inh
CCc1ccccc1NC(=O)c1cnc2sc(N3CCCC3)nn2c1=O,.,-8%,0%,30%[46.1 µM],.,7.9%,.,.
COc1ccc(/C=N/Nc2ccccn2)cc1OC,0%,.,13%,-2%[46.1 µM],0%,.,?,-13%
COc1ccc(-c2cnc(NCc3cc4c(cc3[N+](=O)[O-])OCO4)n2C)cc1,6%,4%,4%,16%,1%,-2.9%,?,0%
Cc1nc(-c2ccccc2)[nH]c(=O)c1Oc1ccc(Cl)cc1Cl,0%,.,?,.,0%,.,.,1%
CCN(CC)C(=O)c1sc(NC(=O)c2cccs2)c(C#N)c1C,-64%,.,23%,2%,-7%,.,-10%,-12%
CC(=NCC1CCCO1)c1c(O)n(-c2ccc(Cl)cc2)c(=O)[nH]c1=O (stereo not given),-4%,9%,-18%,?,-2%,2.8%,3%,-15%
CCOC(=O)Nc1ccc(S(=O)(=O)N(C)C(C)C)cc1,-7%,4%,12%,2%,-3%,-1.2%,1%,11%
CCCN(CC(=O)Nc1ccccc1C)C(=O)c1ccc(C(=O)c2ccccc2)cc1,.,.,-10%,-18%,5%,.,-7%,2%
Cc1cccc(C)c1NC(=O)CCSc1nc(-c2ccc3c(c2)OCO3)cc(C(F)(F)F)n1,.,-9%,-22%,5%[46.1 µM],.,1.3%,-6%[46.1 µM],.
C/C(CCN1CCc2nc(-c3ccccc3)c(-c3ccccc3)cc2C1)=N\OC[C@@H](C)[C@H](OCc1ccccc1)C(C)C,0%,-18%,0%,1%,-9%,-4.6%,-31%,6%
COc1ccc(S(=O)(=O)NCC(c2ccc(N(C)C)cc2)N2CCc3ccccc32)cc1F (stereo not given),.,?,16%,9%[46.1 µM],.,-5.6%,.,.
O=S(=O)(c1ccccc1)N1CCN(C(=S)NCCCN2CCOCC2)CC1,-3%,.,-21%,3%,0%,.,-8%[46.1 µM],-11%
CC(=O)Oc1ccc(/C=N\NC(=O)c2cc3c(ccc4ccccc43)o2)cc1,11%,.,10%,-23%[46.1 µM],-4%,.,-2%[46.1 µM],-11%
CN1C2C=C(N(CCc3c[nH]c4ccccc34)C(=O)c3ccc(Cl)cc3)CC1CC2 (stereo not given),5%,5%,-15%,?,0%,0.9%,?,0%
CCOC(=O)NCc1ccc(Cl)c(Cl)c1,-53%,-11%,-6%,-4%,-12%,1.4%,?,1%
CCN(C(=O)Cn1cnc2onc(-c3ccc(F)cc3)c2c1=O)c1ccc(OC)cc1,.,?,?,1%[46.1 µM],.,-10.0%,.,.
CCCSc1ncc(Cl)c(C(=O)Nc2nc3ccc(OCC)cc3s2)n1,.,-5%,47%[activator],18%[46.1 µM],.,-1.8%,2%[46.1 µM],.
Cc1cccc(NC(=O)C2CCN(S(=O)(=O)c3c(C)[nH]c(=O)[nH]c3=O)CC2)c1,-1%,11%,-16%,1%,-41%,-1.9%,?,17%
CC(C)OC(=O)N(C)c1ccc(C(O)(C(F)(F)F)C(F)(F)F)cc1,-1%,2%,.,?,8%[6.58 µM],-6.2%,4%,-3%
COc1cc(-c2[nH]ncc2CN2CCSCC2)cc(OC)c1OC,2%,.,-13%,-9%,1%,.,0%[46.1 µM],-9%
Cc1cnc(C(=O)OC(C)C(=O)NC2CCCc3ccccc32)cn1 (stereo not given),.,.,-9%,15%,2%,.,-12%[46.1 µM],6%
O=[N+]([O-])c1ccc(OCc2cnc(Cl)s2)c([N+](=O)[O-])c1,-1%,.,20%,-8%,1%,.,12%[14.2 µM],?
Cc1ccc(C(C)C)c(OCCNS(C)(=O)=O)c1,9%,6%,-2%,-16%,.,3.5%,1%,-6%
CN(C)S(=O)(=O)c1ccc(C(=O)OCc2nnc(-c3ccccc3)o2)cc1,-3%,.,-4%,25%,0%,.,17%[46.1 µM],-14%
O=C(COC(=O)C1=Cc2ccccc2OC1)NCc1ccccc1,.,.,-8%,-19%,2%,.,26%,3%
Cc1cc(C(=O)Nc2nc3c(s2)CCCC3)no1,-12%,-11%,-54%,?,-15%,-4.1%,?,?
Cc1cc(SCc2ccccc2F)nc(=O)[nH]1,-4%,.,8%,.,-3%,.,.,4%
Cc1ccc(-c2sc(C(=O)NN)c(C)c2C#N)cc1,7%,.,0%,?,-1%,.,?,-9%
CCC(=O)NC(Nc1ccccn1)(C(=O)OC)C(F)(F)F (stereo not given),14%,6%,1%,11%,-2%,2.2%,?,45%
CCCCC/S(CC1CC1(Cl)Cl)=N\S(=O)(=O)c1ccc(C)cc1 (stereo not given),.,.,7%,3%[46.1 µM],5%,.,?,19%
O=c1cc(-c2ccccc2)n(S(=O)(=O)c2ccc3ccccc3c2)o1,.,.,4%,?,.,.,?,-6%
Cc1[nH]c2ccccc2c1C(=O)CSC(=S)N1CCCCC1,-1%,-1%,38%[activator],?,-7%,-6.5%,11%,16%
Cc1ccccc1NC(=O)CN(c1ccc(F)cc1)S(C)(=O)=O,7%,-1%,6%,0%,3%,4.4%,-8%,-8%
COc1ccccc1NC(=O)C1=C(C)Nc2nc3ccccc3n2C1c1cccc(Br)c1 (stereo not given),.,5%,?,-2%[46.1 µM],.,-4.6%,?,.
Cc1ccc(NC(=O)CSc2ccc(-c3cccs3)nn2)cc1Cl,.,9%,-17%,11%[46.1 µM],.,-2.1%,.,.
CN1CC[n+]2c(CN3C(=O)c4ccccc4C3=O)csc21,2%,10%,-14%,-1%,-1%,-3.4%,?,1%
COc1ccc(CCn2c(NN)nc3c2c(=O)[nH]c(=O)n3C)cc1,2%,.,-22%,-24%[46.1 µM],-3%,.,?,-4%
CC(=O)Nc1ccc(N=Cc2c(O)c3ccccc3oc2=O)cc1,1%,.,9%,.,0%,.,.,14%
CCS(=O)(=O)Nc1ccccc1C(N)=O,4%,.,13%,6%,1%,.,-17%[46.1 µM],-3%
C=C(C)C1Cc2c(C)nn(-c3nc(C)cc(C)n3)c2C1 (stereo not given),-102%,11%,?,-8%,-5%,-1.6%,-23%,-1%
CCOP(=O)(OCC)C(O)c1ccc(OC)cc1OC (stereo not given),19%,7%,-9%,3%,17%,-0.6%,7%,.
Cc1ccccc1CNC(=O)c1ccccc1NC(=O)c1nsc2ccccc12,.,13%,0%,15%[46.1 µM],.,-0.1%,.,.
O=C(NC1CC(=O)N(c2ccccc2)C1)c1ccc(Br)o1 (stereo not given),.,-5%,-9%,-15%[46.1 µM],.,0.6%,.,.
C/C(=N\NC(=O)C(C)Sc1ccccc1)C(C)(C)C (stereo not given),-2%,-3%,45%[activator],11%,-6%,8.5%,2%,-1%
CC(=O)c1c(C)[nH]c(C(=O)CN2CCN(S(=O)(=O)c3ccccc3F)CC2)c1C,.,.,18µM*,?,-1%,.,?,4%
O=C(Nc1c2c(nn1-c1ccc(F)cc1)CS(=O)C2)C12CC3CC(CC(C3)C1)C2 (stereo not given),-7%,5%,-22%,1%,1%,4.8%,9%,12%
CCCN1C(=O)SC(CC(=O)Nc2ccc(C)cc2)C1=O (stereo not given),-45%,-10%,-8%,-6%,11µM*,0.0%,?,-8%
Cc1ccc(C(=O)Nc2ccccc2C(=O)NC2CCCCC2)cc1S(=O)(=O)N1CCOCC1,4%,24%,20%,-22%,.,-2.4%,?,-8%
CCOC(=O)c1c(N)nn(C(=O)c2ccccc2F)c1-c1ccc(OC)cc1,-6%,.,-8%,-3%,-2%,.,11%[46.1 µM],32%
Cn1cccc1CC(=O)NNC(=S)Nc1ccccc1Cl,27%,-3%,29%,17%[46.1 µM],4%,-2.4%,2%[46.1 µM],-2%
O=C(c1cccc(C(=O)N2CCN(Cc3ccccc3)CC2)c1)N1CCN(Cc2ccccc2)CC1,-6%,4%,?,?,4%,-4.7%,-27%,-4%
CC(C)(C)C(=O)Nc1sc2c(c1C#N)CCC2,0%,.,7%,5%,-3%,.,?,4%
c1ccc(-c2oc3ncnc(NCCCN4CCOCC4)c3c2-c2ccccc2)cc1,-87%,11%,?,-1%,-7%,-13%,?,2%
Cc1cccc(NC(=O)c2ccc(-c3nc(CSc4ccccc4)c(C)o3)cc2)c1C,.,?,?,19%[46.1 µM],.,-4.7%,.,.
O=C1N/C(=N\S(=O)(=O)c2ccccc2)S/C1=C\c1cc([N+](=O)[O-])ccc1O,?,.,4%,?,17%,.,?,-7%
COc1cc(/C=C/CO)cc(OC)c1O[C@@H]1O[C@H](CO)[C@@H](O)[C@H](O)[C@H]1O,-16%,0%,-17%,17%,8%,3.4%,?,6%
CC(C)c1ccc(CN2CC(C(=O)Nc3ccccc3)CC2=O)cc1 (stereo not given),.,.,-13%,7%,0%,.,?,6%
